Screening results: PubChem BioAssay, National Center for Advancing Translational Sciences (NCATS)
TRPML1 ag: agonists of human TRPML1 channel. Q9GZU1. TRPML1-expressing cells, Ca2+ dye fluorescence, FDSS; host cell line not named in the record; reference of the full effect not given here. activation, % (no concentration beside the values). 410,000 compounds, 0.12% hits; in the data active = activation above about 50%; inconclusive = about 30% to 50%; inactive = below about 30%; further: 0% is about no effect; the text of the record puts the active cut at 80%
Target sequence (Q9GZU1 whole entry, looked up): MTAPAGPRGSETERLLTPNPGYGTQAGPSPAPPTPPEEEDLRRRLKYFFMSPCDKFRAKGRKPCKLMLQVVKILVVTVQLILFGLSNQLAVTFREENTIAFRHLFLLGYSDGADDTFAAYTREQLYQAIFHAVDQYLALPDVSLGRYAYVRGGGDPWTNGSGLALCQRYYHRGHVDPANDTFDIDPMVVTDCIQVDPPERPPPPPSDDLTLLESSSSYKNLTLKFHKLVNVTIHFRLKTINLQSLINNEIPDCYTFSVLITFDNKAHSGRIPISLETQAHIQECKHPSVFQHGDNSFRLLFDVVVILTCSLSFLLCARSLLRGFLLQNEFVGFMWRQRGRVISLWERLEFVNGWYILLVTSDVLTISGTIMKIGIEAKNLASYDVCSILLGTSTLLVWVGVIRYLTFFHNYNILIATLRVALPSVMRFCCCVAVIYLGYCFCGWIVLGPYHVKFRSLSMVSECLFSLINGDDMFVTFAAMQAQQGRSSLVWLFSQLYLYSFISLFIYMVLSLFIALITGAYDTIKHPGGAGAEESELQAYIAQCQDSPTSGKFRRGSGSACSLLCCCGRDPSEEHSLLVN
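In this qHTS format, compounds were pin-transferred onto Ca8-dye-loaded TRPML1-DL cells induced with Tet overnight, and intracellular Ca2+ fluorescence was recorded kinetically for 110 s after a 10 s baseline. A subsequent 4uM final 54-4 (EC80) addition followed by a second 110 s read served as the antagonist phase.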
ClpP mod: qHTS Assay for Activators of ClpP | ATP-dependent Clp protease proteolytic subunit (Bacillus subtilis (strain 168)), P80244 | Potency, µM (doses to about 57.5 µM), inactives show top-dose activity change, negative = active | purified B. subtilis ClpP, FRET peptide cleavage, 20 min | 340,000 compounds, 1.9% hits; active = well fitted falling curve with a large enough effect; inconclusive = small, poorly fitted or top-dose-only effect; inactive = no such curve, though single readings can be large or run the other way; further: potency means the concentration at half of the fitted maximal effect; the source files actives as falling curves though it sought activators and does not explain the sign; nearly all actives have a fitted effect of over 65% in size; many hits overshoot -100%
Target sequence (P80244 whole entry, looked up): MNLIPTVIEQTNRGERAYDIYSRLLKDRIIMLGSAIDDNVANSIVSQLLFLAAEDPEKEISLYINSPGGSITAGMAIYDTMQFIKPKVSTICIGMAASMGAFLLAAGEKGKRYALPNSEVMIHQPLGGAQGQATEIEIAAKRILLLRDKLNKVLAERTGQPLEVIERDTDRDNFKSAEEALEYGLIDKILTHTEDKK
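FRET quenching reversal measured ClpP activation: 10 microg/mL B. subtilis ClpP at pH 8 with the FRET-FV decapeptide, read at 430 nm after 320 nm excitation. The 20-min minus 0-min signal was scaled between DMSO/no-enzyme wells and ADEP (5.8 microM final).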
gsp agonist: activates gsp, the McCune-Albright syndrome mutation. Potency, µM (titrated, usually from 76.9 µM), inactives show at the highest dose activation (cAMP increase), usual class: activators. gsp mutant cells, cAMP HTRF, 30 min; control for the full effect not named in the record. 340,000 compounds, 0.13% hits. AID 624287; active = well fitted activation curve with a large enough effect; inconclusive = small, poorly fitted or top-dose-only effect, or another doubt; inactive = no such curve, though single readings can be large or run the other way; cell line not stated here;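 further: phosphodiesterase inhibitor Ro 20-1724 added with compounds to block cAMP breakdown; potency means the concentration at half of the fitted maximal effect; nearly all actives have a fitted effect of over 60% in size; about a fifth of the inactives were tested at one dose only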
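Cells in DMEM/10% FBS with G418 were pretreated with compounds in DMSO plus […] (300 uM stock) for 30 min at 37C. cAMP was measured by HTRF (cAMP-d2 plus anti-cAMP antibody-K) after 30 min at room temperature.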
TRPML1 blocker: blocks the human TRPML1 channel. Q9GZU1. TRPML1-inducible cells, Ca2+ dye fluorescence, FDSS; hits give low values; inhibition of EC80 agonist-evoked calcium signal. activity change, negative = inhibition, % (no concentration beside the values). 390,000 compounds, 0.02% hits; in the data active means activity change below about -50%; inconclusive means about -30% to -50%; inactive means above about -30%;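 further: stimulus is agonist 54-4 at its EC80 concentration; on the % scale 0 is the no-effect control and ±100 the full control effect; compound concentration not given in the record; the text of the record puts the active cut at -80%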
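Tet-induced TRPML1-DL cells loaded with Ca8 no-wash calcium dye were read kinetically on FDSS. Compound addition was followed by EC80 agonist 54-4 (4 uM final); inhibition was read over 110 s.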
Menin-MLL FL inh: inhibitors of human menin-MLL interaction, wild-type MLL peptide | AID 1766 | Fluorescence polarization, fluorescein-MLL peptide displacement from menin | FP activity change, % at 61.4 µM | 290,000 tested, under 10 active; inconclusive = falling polarisation curve, or a change in total fluorescence; inactive = total fluorescence flat and polarisation flat or rising; no compound was filed as active; the % refers to the polarisation; negative = inhibition;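 further: % of control where 0% means no effect; inhibitors lower the polarisation; unlabelled MLL peptide was the positive control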
gsp antagonist: antagonizes gsp, the McCune-Albright syndrome mutation; gsp-mutant cells, cAMP HTRF, 30 min; control for the full effect not named in the record; Potency, µM (titrated, usually from 76.9 µM), for inactives: at the highest dose activity change, negative = inhibition, hits mostly inhibitors; 340,000 compounds, 0.4% hits; AID 624288; active = falling curve of any shape with a large fitted effect; inconclusive = falling curve, mostly with a smaller effect; inactive = flat or rising curve; cell line not stated here;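 further: intracellular cAMP measured with PDE inhibitor Ro 20-1724 present during compound exposure; potency means the concentration at half of the fitted maximal effect; on the % scale 0 is the no-effect control and ±100 the full control effect; nearly all actives have a fitted effect of over 65% in size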
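Cells, 2000/well, grown 16–24 h in DMEM 10% FBS with 0.5 mg/ml G418, then compounds plus […] (300 uM addition stock), 30 min at 37C. cAMP read by HTRF (cAMP-d2 and anti-cAMP antibody-K in lysis buffer) after 30 min RT.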
Active calls of the source: *; [ ] = remark or other dose.

Screening COc1cc(OC)cc(C(=O)N[C@H](C(=O)OCC(=O)Nc2cccc(F)c2)C(C)C)c1 returned TRPML1 ag 1.6, ClpP mod -2.0%, gsp agonist -10%, TRPML1 blocker -10, Menin-MLL FL inh 3.8 and gsp antagonist -5%.
Screening NC(=O)C1CCN(C(=O)CCC(=O)c2ccc(F)cc2)CC1 returned TRPML1 ag 1.3, ClpP mod 0.2%, gsp agonist 12%, TRPML1 blocker 5, Menin-MLL FL inh 7.1 and gsp antagonist 6%.
`Cc1cc(NC(=O)COC(=O)c2ccc(F)c(S(=O)(=O)N3CCOCC3)c2)no1` gave TRPML1 ag 0.0, ClpP mod -1.9%, gsp agonist 12%, TRPML1 blocker 4, Menin-MLL FL inh -0.5 and gsp antagonist 9%[15.4 µM].
For c1ccc2c(C3=NNC(=NC4CC4)SC3)c[nH]c2c1 the results were TRPML1 ag -0.4, ClpP mod -4.8%, gsp agonist 4%, TRPML1 blocker 3, Menin-MLL FL inh -2.0 and gsp antagonist -5%.
Screening COc1cc(/C=C/C(=O)OCC(=O)NC(=O)NC(C)(C)C)ccc1O returned TRPML1 ag 1.9, ClpP mod -14%, gsp agonist -35%[inhibitor], TRPML1 blocker -5, Menin-MLL FL inh 1.6 and gsp antagonist -7%.
CCCCCCCCOC(=O)c1nc(Cl)c(Cl)c(N)c1Cl was read as TRPML1 ag 2.1, ClpP mod -3.7%, gsp agonist -11%[15.4 µM], TRPML1 blocker -7 and gsp antagonist 13%.
Screening Cc1nonc1C(=O)N1CCCC(Nc2ccc(C(C)C)cc2)C1 (configuration not stated) returned TRPML1 ag 0.0, ClpP mod -0.1%, gsp agonist 5%, TRPML1 blocker 27, Menin-MLL FL inh 3.3 and gsp antagonist 9%.
`CC1Cc2ccccc2N1C1=CC(=O)CCC1` (configuration not stated) gave TRPML1 ag -0.5, gsp agonist -4%[15.4 µM], TRPML1 blocker -12, Menin-MLL FL inh -0.7 and gsp antagonist 9%.
Screening COc1ccc(-n2nc(C(=O)N3CCN(Cc4ccc5c(c4)OCO5)CC3)c3ccccc3c2=O)cc1 returned TRPML1 ag 1.5, ClpP mod -6.0%, gsp agonist 11%, TRPML1 blocker 19, Menin-MLL FL inh 0.4 and gsp antagonist -1%.
Screening CC(=O)Nc1ccc(NC(=S)NC(=O)C2CCCC2)cc1 returned TRPML1 ag 3.1, ClpP mod 0.0%, gsp agonist -14%, TRPML1 blocker -19 and gsp antagonist 8%.
`Cc1nc(N2CCOCC2)nc(OCCN2CCOCC2)c1[N+](=O)[O-]` gave TRPML1 ag -0.2, gsp agonist 5%, TRPML1 blocker 2, Menin-MLL FL inh 2.6 and gsp antagonist -2%.
Screening COC(=O)[C@H](C)NC(=O)Nc1cccc(Br)c1 returned TRPML1 ag -0.8, gsp agonist -22%[15.4 µM], TRPML1 blocker -5, Menin-MLL FL inh 1.5 and gsp antagonist 1%.
For COc1ccc(/C=N/Nc2cc(C)nc(NS(=O)(=O)c3ccc(C)cc3)n2)cc1 the results were TRPML1 ag 0.0, gsp agonist -64%[inhibitor], TRPML1 blocker 6, Menin-MLL FL inh 3.7 and gsp antagonist -30%.
For O=C(Nc1cccnc1)OCc1ccccc1 the results were TRPML1 ag -0.2, ClpP mod 1.3%, gsp agonist -25%[15.4 µM], TRPML1 blocker 9, Menin-MLL FL inh -4.7 and gsp antagonist 9%.
CCOc1cccc(/C(O)=C2/C(=O)C(=O)N(Cc3cccnc3)C2c2ccco2)c1 (configuration not stated) was read as TRPML1 ag 0.8, ClpP mod -2.8%, gsp agonist 29%, TRPML1 blocker -6, Menin-MLL FL inh -0.8 and gsp antagonist 10%.
For COCCCNS(=O)(=O)c1ccccc1 the results were TRPML1 ag -0.4, ClpP mod 0.6%, gsp agonist 29%, TRPML1 blocker 8, Menin-MLL FL inh 1.9 and gsp antagonist 10%.
For COc1cccc(-n2nnnc2S(C)(=O)=O)c1 the results were TRPML1 ag 6.2, ClpP mod -2.6%, gsp agonist -11%, TRPML1 blocker -19, Menin-MLL FL inh 1.7 and gsp antagonist 12%.
For O=C(c1ccccc1)c1cnc(Nc2ccc(Cl)c(Cl)c2)s1 the results were TRPML1 ag -0.2, ClpP mod -10.0%, gsp agonist 22%, TRPML1 blocker -15, Menin-MLL FL inh 3.4 and gsp antagonist 8%.
Cc1cc(NC(=O)c2sc(Nc3cccc(C(F)(F)F)c3)nc2N)no1 was read as TRPML1 ag 0.0, ClpP mod -0.2%, gsp agonist -31%[inhibitor], TRPML1 blocker 4, Menin-MLL FL inh -0.2 and gsp antagonist 6%.
`COc1ccc(Cc2nc(N)nc(N)n2)cc1` gave TRPML1 ag -0.8, ClpP mod 0.0%, gsp agonist -48%[inhibitor], TRPML1 blocker -3, Menin-MLL FL inh 4.8 and gsp antagonist 4%.
O=c1[nH]c(N/N=C/c2ccccc2Br)nnc1-c1ccccc1 was read as TRPML1 ag 4.9, ClpP mod 0.9%, gsp agonist -10%, TRPML1 blocker -23, Menin-MLL FL inh 5.0 and gsp antagonist inconclusive.
`CCCCNC(=O)CCCn1c(=O)c2ccccc2n(Cc2ccccc2C)c1=O` gave TRPML1 ag 1.4, ClpP mod -7.2% and TRPML1 blocker 27.
COc1ccc(C(=O)NCc2nnc(SCC(=O)NC3CCCCC3)o2)cc1 was read as TRPML1 ag -1.4, ClpP mod -0.5%, gsp agonist inconclusive, TRPML1 blocker 21 and gsp antagonist -4%.
Screening COc1ccccc1NS(=O)(=O)c1cccc(C(=O)NCC(c2ccco2)N2CCCC2)c1 (configuration not stated) returned TRPML1 ag 1.4, ClpP mod -2.4%, gsp agonist -4%, TRPML1 blocker -13 and gsp antagonist 8%.
For N#CC(C#N)=Cc1cccn1-c1ccc(S(N)(=O)=O)cc1 the results were TRPML1 ag -0.6, gsp agonist 0%[15.4 µM], TRPML1 blocker -17, Menin-MLL FL inh -0.1 and gsp antagonist -4%.
CCOC(=O)c1c(/N=C/c2ccccc2O)sc2c1CCC2 was read as TRPML1 ag 0.5, ClpP mod -0.1%, gsp agonist -2%[15.4 µM], TRPML1 blocker -10, Menin-MLL FL inh 3.7 and gsp antagonist 2%.
Screening Cc1ccccc1C(=O)N1CCN(c2ccc(NC(=O)CSc3ccc(Cl)cc3)cc2)CC1 returned TRPML1 ag 4.5, ClpP mod -3.0%, gsp agonist -32%[inhibitor], TRPML1 blocker 45, Menin-MLL FL inh -0.3 and gsp antagonist -33%.
For O=C(Cc1ccccc1)NC1(O)C(=O)c2ccccc2C1=O the results were TRPML1 ag 0.3, gsp agonist 8%[15.4 µM], TRPML1 blocker -12, Menin-MLL FL inh -6.8 and gsp antagonist -1%.
Screening CCn1c(CCC(=O)Nc2ccccc2F)nnc1SCC(=O)Nc1ccc(OC)cc1 returned TRPML1 ag -0.3, ClpP mod 0.9%, gsp agonist -7%[15.4 µM], TRPML1 blocker -4 and gsp antagonist -10%.
COc1ccccc1N1CCN(C(c2cc3cc(C)ccc3[nH]c2=O)c2nnnn2C2CCCC2)CC1 (configuration not stated) was read as TRPML1 ag -0.1, ClpP mod -27%, gsp agonist inconclusive, TRPML1 blocker -6, Menin-MLL FL inh 4.7 and gsp antagonist 9%.
For C=CCNC(=O)CCCOc1ccc(C)cc1 the results were TRPML1 ag -0.3, ClpP mod -4.9%, gsp agonist 1%, TRPML1 blocker 10, Menin-MLL FL inh 3.1 and gsp antagonist 4%.
COC(=O)c1ccc(C2C(C(=O)c3cc4ccccc4o3)=C(O)C(=O)N2CCN2CCOCC2)cc1 (configuration not stated) was read as TRPML1 ag 0.1, ClpP mod -0.6%, gsp agonist inconclusive, TRPML1 blocker 18 and gsp antagonist 15%.
Cc1nnc(SCC(=O)n2c3c(c4ccccc42)CCCC3)s1 was read as TRPML1 ag 0.5, ClpP mod 2.7%, gsp agonist -40%[inhibitor], TRPML1 blocker 3, Menin-MLL FL inh 5.7 and gsp antagonist -17%.
`CN1CCN(c2ccc(-c3cccc(NC(=O)COc4ccccc4)c3)nn2)CC1` gave TRPML1 ag -1.1, ClpP mod 1.5%, gsp agonist 2%, TRPML1 blocker -13 and gsp antagonist 0%.
`CCC(=O)Nc1cccc(-n2nnnc2SCC(=O)c2ccc(C)c(C)c2)c1` gave TRPML1 ag 1.2, gsp agonist 0%[15.4 µM], TRPML1 blocker 16, Menin-MLL FL inh 2.9 and gsp antagonist inconclusive.
`N#Cc1nc(-c2ccco2)oc1NCc1cccnc1` gave TRPML1 ag -0.5, ClpP mod 26%, gsp agonist -8%, TRPML1 blocker -3, Menin-MLL FL inh 3.9 and gsp antagonist 2%.
NS(=O)(=O)c1ccc(CCNC(=O)CCS(=O)(=O)c2ccc(Br)cc2)cc1 was read as TRPML1 ag 0.6, ClpP mod -0.3%, gsp agonist 2%, TRPML1 blocker 3, Menin-MLL FL inh 0.0 and gsp antagonist 2%.
Screening CCn1c(COc2ccc(=O)n(-c3ccccc3)n2)nnc1SCc1ccccc1 returned TRPML1 ag 1.3, ClpP mod -0.2%, gsp agonist -32%[inhibitor], TRPML1 blocker -10, Menin-MLL FL inh -3.2 and gsp antagonist -5%.
`Cc1cccc(CCNC(=O)COc2cc(=O)n(C)c3ccccc23)c1` gave TRPML1 ag 0.9, gsp agonist 0%[15.4 µM], TRPML1 blocker 20, Menin-MLL FL inh -3.1 and gsp antagonist 32µM*.
For N#CC1=C(S)N(c2ccc(F)cc2)C2(CCCCC2)NC1=O the results were TRPML1 ag 0.7, gsp agonist -33%[inhibitor], TRPML1 blocker 18, Menin-MLL FL inh -3.2 and gsp antagonist 1%.
`O=C(c1cc2nc(-c3ccco3)cc(C(F)(F)F)n2n1)N1CCN(Cc2ccccc2)CC1` gave TRPML1 ag 0.3, ClpP mod inconclusive, gsp agonist -40%[inhibitor], TRPML1 blocker 26, Menin-MLL FL inh -1.0 and gsp antagonist -4%.
Screening COc1ccc(-c2onc(C)c2-c2cscn2)c(O)c1 returned TRPML1 ag 0.3, gsp agonist -2%[15.4 µM], TRPML1 blocker -2 and Menin-MLL FL inh 0.6.
O=C(NCC(c1cccs1)N1CCc2ccccc21)c1ccccc1 (configuration not stated) was read as TRPML1 ag 2.7, ClpP mod -1.8%, gsp agonist 4%, TRPML1 blocker 12 and gsp antagonist -21%.
For CCOC(=O)c1ccc(NC(=S)Nc2ccc(C)cc2)cc1 the results were TRPML1 ag 0.3, gsp agonist 3%[15.4 µM], TRPML1 blocker 13, Menin-MLL FL inh -0.4 and gsp antagonist 10%.
For O=C(/C=N/O)NCCCN1CCOCC1 the results were TRPML1 ag -0.1, ClpP mod 0.4%, gsp agonist 6%, TRPML1 blocker -8, Menin-MLL FL inh 0.6 and gsp antagonist 12%.
